High-throughput results: PubChem, ICCB-Longwood Screening Facility, Harvard Medical School
GIV-Gai inh – blocks GIV peptide binding to rat Galpha-i3 | hit rate 0.42% among 210,000 | Galpha-i3/FITC-GIV peptide fluorescence polarization, 90 min; hits give low values; scaled: aluminum fluoride 0%, vehicle 100% | AID 1224905 | percent of control (FP), % (no concentration beside the values) | P08753;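 active = replicate mean at 85% of control or lower, very high polarization wells dropped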;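 note: wells of about 15 µL received 100 nL stock; the first replicate is given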
Target sequence (P08753 whole entry, looked up): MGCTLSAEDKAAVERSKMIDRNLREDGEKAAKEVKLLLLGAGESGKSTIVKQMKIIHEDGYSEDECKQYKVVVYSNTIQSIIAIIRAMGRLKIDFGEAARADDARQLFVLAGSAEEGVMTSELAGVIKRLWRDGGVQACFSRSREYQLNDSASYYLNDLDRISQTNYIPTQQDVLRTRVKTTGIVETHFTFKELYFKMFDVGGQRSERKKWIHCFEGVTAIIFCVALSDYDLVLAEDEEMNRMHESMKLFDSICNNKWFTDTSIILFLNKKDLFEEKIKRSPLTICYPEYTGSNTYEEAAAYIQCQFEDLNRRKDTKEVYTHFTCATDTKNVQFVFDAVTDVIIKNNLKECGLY
HCMV NEC inh – disrupts HCMV UL50-UL53 complex binding | HTRF UL50-UL53 interaction, normalized percent inhibition | inhibition, % (test concentration not listed) | hit rate 0.15% among 190,000;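 active = both replicates at 50% or more, plus weaker picks with an unusually low signal ratio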;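 note: stock transfer was 100 nL into about 20 µL; 0% = negative control wells and 100% = wells with untagged competitor protein; inactives centre near -12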
Sa growth 42C – blocks Staphylococcus aureus growth; S. aureus RN4220 growth, OD600, 20 h, 42 °C; hits give low values; hit rate 0.53% among 170,000; AID 720641; relative growth, % (no concentration beside the values);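 active = growth at 42 °C up to 50% and 20 or more points under that at 30 °C, or under 10% at both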;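 note: 300 nL library stock went into each well; scaled to the means of positive and negative controls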
Sa growth 42C second temp – also measured in Sa growth 42C; calls as there; relative growth, %; measured here: growth at 30 °C;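 optical density after 20 h as mean of two plates; 100% = untreated growth and lower means inhibition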
* hit, by the source's call; / = not tested or not shown; & = joins results of further samples.

SMILES | GIV-Gai inh | HCMV NEC inh | Sa growth 42C | Sa growth 42C second temp
CC(=O)N1CCc2cc(NC(=S)NCc3cccs3)ccc21 | 100 | -7 | 87 | 92
CCOC(=O)c1ccc(NC(=S)NC2CCS(=O)(=O)C2)cc1 (stereo unspecified) | / | -8 | 87 | 86
Cc1ccccc1-c1n[nH]c(=S)o1 | 94 | -13 | 82 | 68
CCC1=Nc2cc(C(=O)NCc3ccc(C)cc3)ccc2Sc2ccc(C)cc21 | 111 | / | 117 | 98
COc1ccc(CCn2c(SCC(N)=O)nc3c(sc4ccccc43)c2=O)cc1OC | 107 | 3 | 114 | 95
COc1cccc(NC(=O)c2ccc(NC(=O)N3CCCCc4ccccc43)cc2)c1 | 104 | 0 | / | /
Cc1ccc(NC(=O)C2CCN(C(=O)c3sc4nc[nH]c(=O)c4c3C)CC2)cc1F | 105 | / | 82 | 86
CCOc1ccc(-n2ccnc2SCC(=O)Nc2ccccc2)cc1 | 100 | -5 | 83 | 68
CC1(C)CC(=O)c2sc(NC(=O)c3ccc(S(=O)(=O)N4CCc5ccccc54)cc3)nc2C1 | 106 | -19 | / | /
COc1ccccc1CC(=O)NC1CCCCC1 | / | -22 | 78 | 92
Cc1ccc(S(=O)(=O)N(CC(=O)Nc2ccc(Cl)cc2Cl)c2ccccc2C)cc1 | 108 | -1 | 116 | 97
O=C(c1cc2cc3ccc(Cl)cc3nc2o1)N1CCN(c2cccc(Cl)c2)CC1 | 105 | -17 | 112 | 88
O=C(CCc1cn(Cc2ccccc2F)c2ccccc12)NCc1ccc(Cl)cc1 | 108 | / | 101 | 90
COc1cc2c(cc1NC(=O)COc1ccc(Cl)cc1Br)oc1ccccc12 | 101 | 5 | 101 | 84
COc1ccc(CNC(=O)COC(=O)c2ccccc2NS(C)(=O)=O)cc1OC | / | -34 | 102 | 80
CCN(CC)S(=O)(=O)N1CCC(C(=O)NCCC2=CCCCC2)CC1 | 103 | 8 | 89 | 87
c1ccc(-c2nc3nc4c(c(Nc5ccc6c(c5)OCO6)n3n2)CCCC4)cc1 | 101 | 1 | / | /
C=CCSc1ncnc2sc3c(c12)CCCC3 | 100 | -20 | 92 | 75
Cc1ccc(N2C=NNC(=O)C2)cc1C | 100 | -18 | 103 | 92
O=C1c2oc3ccccc3c(=O)c2C(c2ccc(F)cc2)N1c1ccccn1 (stereo unspecified) | 102 | -16 | 93 | 94
Cc1c(Cl)cccc1N1CC(C)(C)C1=O | 100 | -16 | / | /
Cc1c(NC(=O)CCN2C(=O)/C(=C/c3ccccc3Cl)SC2=S)c(=O)n(-c2ccccc2)n1C | 103 | -17 | / | /
Cn1nc(CC(=O)NCCN2C(=O)CSC2=O)c2ccccc2c1=O | 96 | -6 | 90 | 85
O=C1OCc2cccc3cccc(c23)S(=O)c2cccc3cccc1c23 (stereo unspecified) | 103 | -7 | 100 | 99
CS(=O)(=O)c1ccc2nc(NC(=O)CN3C(=O)c4ccccc4C3=O)sc2c1 | 102 | -28 | 99 | 82
O=c1c2ccccc2c(-c2nc(-c3ccccn3)no2)nn1-c1cccc(Cl)c1 | 109 | -22 | / | /
CC(=O)N1CCc2cc3ccccc3nc21 | 104 | -14 | / | /
CC(C)C(O)(C#CCN1CCCCC1)C(C)C | / | -8 | 86 | 85
COC(=O)c1cc(COC(=O)CCc2nc3ccccc3s2)oc1C | / | -7 | 109 | 92
O=c1[nH]nc(SCc2ccccc2)n1-c1cccc(Cl)c1 | 96 | 0 | 116 | 84
C=CCn1cnnc1SCC(=O)c1ccccc1OC | / | -7 | 91 | 84
CCCC(C#CCN1CCCCC1)OC(C)=O (stereo unspecified) | / | -15 | 103 | 89
CC(C)c1nc2ccccc2n1C(C)C(=O)O (stereo unspecified) | / | -3 | 114 | 98
Cc1ccc(-n2c(SCC(=O)Nc3cccc(C)c3)nc3c(oc4ccccc43)c2=O)cc1 | 111 | 1 | 94 | 88
Cn1nccc1Nc1ccc(OC(=O)c2ccnn2C)cc1 | / | 5 | 81 | 90
Cc1ccc2oc(=O)c3cnn(CC(=O)NCCN(C)C)c3c2c1 | 105 | 4 | 96 | 95
CC(Cc1nnc(SCC(=O)c2ccc[nH]2)n1N)c1ccccc1 (stereo unspecified) | / | -40 | 98 | 86
COC(=O)CSc1nc(N)nc(C)c1Br | 107 | -28 | 81 | 80
COc1cc(NS(=O)(=O)c2cc(Br)cc3c2N(C(C)=O)C(C)C3)cc(OC)c1 (stereo unspecified) | 101 | / | 110 | 91
CC(C)CCNC(=O)c1c[nH]c2ccc(S(=O)(=O)N3CCc4ccccc43)cc2c1=O | 106 | / | 94 | 88
O=C(NCCn1c(-c2ccccc2)nc2cccnc21)NCc1ccccc1 | 110 | -4 | / | /
C=CCn1c(C)c(C(=O)OC)sc1=Nc1ccccc1 | 101 | 6 | 101 | 71
COc1ccc(C(CC(=O)c2ccco2)Sc2cccc3cccnc23)cc1OC (stereo unspecified) | 99 | / | 78 | 90
Cn1c(=O)c(-c2noc(C(=O)NC3CCCCC3)n2)nn(-c2ccccc2)c1=O | 100 | -82 | / | /
CCOC(=O)c1c(C)n(-c2ccccc2C)c2ccc(OC(=O)c3ccccc3)cc12 | 103 | 2 | / | /
C=CCn1c(SC(C#N)Cc2ccc(C)cc2)nnc1C1COc2ccccc2O1 (stereo unspecified) | / | -36 | 104 | 90
CCN1CCN(Cc2c(O)ccc3cc(-c4ccc(OC)cc4)c(=O)oc23)CC1 | 119 | / | 76 | 89
Cc1cccc(C(C)C)c1NC(=O)COC(=O)c1cccnc1Cl | / | 3 | 87 | 95
Cc1cc2nc(-n3nnc4ccccc43)c3ccccc3n2n1 | / | -23 | 90 | 98
O=C(c1ccc2c(Cl)c3c(nc2c1)CCCC3)N1CC=C(c2ccccc2)CC1 | 121&100 | -84 | 103 | 65

(more compounds)
SMILES | GIV-Gai inh | HCMV NEC inh | Sa growth 42C | Sa growth 42C second temp
Nn1c(CCn2c3ccccc3c3ccccc32)n[nH]c1=S | 101 | -20 | 114 | 80
Cc1c2cnn(CC(=O)O)c(=O)c2c(C)n1Cc1cccc(Cl)c1 | 102 | -29 | 94 | 87
CCNc1nc2ccccc2s1 | 97 | -36 | 92 | 88
O=C(CSc1nc2scc(-c3cccs3)c2c(=O)n1-c1ccccc1)NCc1ccco1 | / | -10 | 105 | 93
S=c1[nH]c(=S)c2cnc(N3CCOCC3)nc2[nH]1 | 108 | -4 | 114 | 90
CC1=CCC(C(C)(C)NC(=O)c2ccccc2)C/C1=N/O (stereo unspecified) | 101 | -11 | 106 | 106
CCOC(=O)C1CCN(C(=O)COc2ccccc2)CC1 | / | -8 | 99 | 88
CNC(=S)NNc1cc(C)c2c(C)nn(C)c2n1 | 104 | 1 | 92 | 84
CCCSCCCN1C(=O)c2nc3ccccc3n2CC1(C)C(=O)NC1CCCCC1 (stereo unspecified) | 102 | -12 | / | /
CCOC(=O)c1cccc(NC(=O)C(CC(C)C)N2Cc3ccccc3C2=O)c1 (stereo unspecified) | 102 | / | 102 | 95

Another view of some results above.
| SMILES | GIV-Gai inh | HCMV NEC inh | Sa growth 42C | Sa growth 42C second temp |
| --- | --- | --- | --- | --- |
| CCN1CCN(Cc2c(O)ccc3cc(-c4ccc(OC)cc4)c(=O)oc23)CC1 | 119 | / | 76 | 89 |
| Cc1cccc(C(C)C)c1NC(=O)COC(=O)c1cccnc1Cl | / | 3 | 87 | 95 |
| Cc1cc2nc(-n3nnc4ccccc43)c3ccccc3n2n1 | / | -23 | 90 | 98 |
| O=C(c1ccc2c(Cl)c3c(nc2c1)CCCC3)N1CC=C(c2ccccc2)CC1 | 121&100 | -84 | 103 | 65 |
| Nn1c(CCn2c3ccccc3c3ccccc32)n[nH]c1=S | 101 | -20 | 114 | 80 |
| Cc1c2cnn(CC(=O)O)c(=O)c2c(C)n1Cc1cccc(Cl)c1 | 102 | -29 | 94 | 87 |
| CCNc1nc2ccccc2s1 | 97 | -36 | 92 | 88 |
| O=C(CSc1nc2scc(-c3cccs3)c2c(=O)n1-c1ccccc1)NCc1ccco1 | / | -10 | 105 | 93 |
| S=c1[nH]c(=S)c2cnc(N3CCOCC3)nc2[nH]1 | 108 | -4 | 114 | 90 |
| CC1=CCC(C(C)(C)NC(=O)c2ccccc2)C/C1=N/O (stereo unspecified) | 101 | -11 | 106 | 106 |
| CCOC(=O)C1CCN(C(=O)COc2ccccc2)CC1 | / | -8 | 99 | 88 |
| CNC(=S)NNc1cc(C)c2c(C)nn(C)c2n1 | 104 | 1 | 92 | 84 |
| CCCSCCCN1C(=O)c2nc3ccccc3n2CC1(C)C(=O)NC1CCCCC1 (stereo unspecified) | 102 | -12 | / | / |
| CCOC(=O)c1cccc(NC(=O)C(CC(C)C)N2Cc3ccccc3C2=O)c1 (stereo unspecified) | 102 | / | 102 | 95 |

Following part
SMILES | GIV-Gai inh | HCMV NEC inh | Sa growth 42C | Sa growth 42C second temp
NC(=O)c1ccc(NC(=O)c2cc3c(s2)CCC3)cc1 | / | -24 | 116 | 92
CCOC(=O)C1CCN(C(C)C(=O)Nc2ccc(C(C)C)cc2)CC1 (stereo unspecified) | / | -26 | 96 | 90
O=C(Cc1cccc(C(F)(F)F)c1)OCN1C(=O)c2ccccc2C1=O | / | -35 | 84 | 28
COC(=O)CCC(=O)c1c(C)[nH]c2ccccc12 | / | 5 | 75 | 80
CN(Cc1nc(-c2ccccc2)no1)C(=O)Nc1ccccc1 | 110 | -14 | 91 | 99
O=C(OCc1c(Cl)nc2sccn12)c1cc2c(s1)CCCC2 | / | -18 | 103 | 87
O=C(OCc1nc2ccccc2s1)c1cccc(-n2cnnn2)c1 | / | -11 | 94 | 76
CCOC(=O)N1CCN(C(=O)CCn2c(=S)[nH]c3cc(OCC)c(OCC)cc3c2=O)CC1 | 101 | -4 | 103 | 93
Cn1c(=O)n(C)c2cc(NC(=O)C3COc4ccccc4O3)ccc21 (stereo unspecified) | 100 | -19 | 90 | 67
CCOC(=O)C1CCCN(c2c3c(nc4cc(-c5ccc(C)cc5)nn24)CCC3)C1 (stereo unspecified) | 111 | -3 | 106 | 92
COCc1nnc(NC(=O)C2CCN(C(=O)c3ccco3)CC2)s1 | 99 | 5 | 104 | 93
C=Cc1ccc(Cn2nc(-c3ccc(C)c(S(=O)(=O)N(CC)CC)c3)ccc2=O)cc1 | 101 | -25 | 90 | 68
Nc1ncnc2c1nc(SCCC(=O)O)n2Cc1ccccc1 | 100 | -7 | 107 | 82
CC1Cc2ccccc2N1C(=O)CN(C)S(=O)(=O)c1cccc2cccnc12 (stereo unspecified) | 107 | -4 | 110 | 98
O=C(NC1=NCCS1)C1CCN(S(=O)(=O)c2ccc3c(c2)OCCCO3)CC1 | / | -24 | 77 | 94
COc1ccc(S(=O)(=O)N2CCN=C2N2CCN(c3cccc(Cl)c3)CC2)cc1 | 106 | -7 | / | /
CC1(C)CC(=O)C(C=NC(Cc2ccccc2)C(=O)O)=C(O)C1 (stereo unspecified) | / | -5 | 73 | 90
CCN(C(=O)c1cccnc1OCC(F)(F)F)c1ccc(Cl)cc1 | 100 | 4 | 108 | 94
C=C(C)COc1ccc2oc(-c3ccccc3)c(C(=O)O)c2c1 | 98 | -29 | 139 | 88
O=c1c2cc3c(=O)n(-c4ccccn4)c(=O)c3cc2c(=O)n1-c1ccccn1 | 101 | -3 | 100 | 105
COc1ccc(NC(=O)Nc2cccc(-c3noc(C)n3)c2)cc1 | 101 | / | 120 | 98
COC(=O)C(OC(=O)c1cnn2c(C(F)(F)F)cc(-c3ccccc3OC)nc12)c1ccccc1 (stereo unspecified) | 104 | -33 | / | /
O=C(CN1CCN(S(=O)(=O)c2ccc3c(c2)OCCCO3)CC1)N1CCCc2ccccc21 | / | -20 | 88 | 93
O=c1oc(-c2ccccc2F)nc2sc3c(c12)CCCCC3 | 101 | -2 | / | /
C=CCn1cnc2c(c1=O)c1nc3ccccc3nc1n2CCC1=CCCCC1 | / | -18 | 97 | 95
CC(C)NS(=O)(=O)NC(C)C | 105 | -12 | 101 | 101
Cc1cccc(S(=O)(=O)c2cn(Cc3ccc(F)cc3)c3cc(N4CCOCC4)c(F)cc3c2=O)c1 | 107 | / | 137 | 94
O=C(/C=C(\O)c1ccc(Br)cc1)C(=O)Nc1ccccc1 | 96 | 35 | 45 | 0
CC1CCN(S(=O)(=O)c2ccc3c(c2)N(CC(=O)NCCc2ccccc2)C(=O)CO3)CC1 | 109 | / | 121 | 85
O=C1OCCC1Sc1ncc(C(F)(F)F)cc1Cl (stereo unspecified) | / | -26 | 92 | 82
CC(C)CC(=O)N1CCC(c2c[nH]c3ccccc23)(c2c[nH]c3ccccc23)CC1 | 104 | 8 | 75 | 77
CCn1cc(C(=O)O)c(=O)c2cc(Cl)ccc21 | 98 | -4 | 90 | 85
Fc1ccc(-n2ncc3c(NCCC4=CCCCC4)ncnc32)cc1 | 108 | / | 141 | 94
COc1ccc(N(Cc2nc3ccccc3s2)S(=O)(=O)c2cccs2)cc1 | / | -25 | 102 | 96
COC(=O)C1=NOC2C(=O)N(c3ccc(C)cc3)C(=O)C12 (stereo unspecified) | 102 | 6 | 101 | 102
NC1=C(c2nc3ccccc3s2)CC(c2ccccc2)O1 (stereo unspecified) | / | -9 | 106 | 87
CC(C)(C)c1cc(NC(=O)COC(=O)c2ccc(Br)o2)n(-c2ccccc2)n1 | / | -7 | 111 | 90
COc1cc2c(cc1OC)CN(C(C)C(=O)Nc1cccc(C#N)c1)CC2 (stereo unspecified) | / | 3 | 84 | 98
Cc1nccn1Cc1ccc(C(=O)O)cc1 | 101 | 3 | 100 | 102
